D2 ag – activates the human D2 dopamine receptor | 0.084% of 360,000 active | DiscoveRx PathHunter D2 beta-arrestin, luminescence, 90 min; 100% = 57 uM dopamine signal | AID 624465 | P14416 | activation, % (no concentration beside the values); in the data active = activation above about 40%; inconclusive = about 15% to 40%; inactive = below about 15%; further: compound concentration not given in the record; the text of the record calls up to 30% inactive
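DiscoveRx PathHunter D2 beta-arrestin cells (2,100/well) attached overnight, then compound-stimulated 90 min at 37 C in HBSS/10 mM HEPES/0.1% Tween-20 buffer; beta-galactosidase complementation read by luminescence after 1 h at ambient temperature. Dopamine 57 uM final (EC100) as control.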
CtBP-E1A blk – CtBP/E1A binding inhibition; AID 651724; activity change, % (no concentration beside the values); 0.49% of 340,000 active; AlphaScreen GST-E1A/His-CtBP binding, 1536-well; active compounds read low; control for the full effect not named in the record; in the data active means activity change below about -65%; inconclusive means about -30% to -65%; inactive means above about -30%; further: on the % scale 0 is the no-effect control and ±100 the full control effect
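Steps: dispense buffer (Tris pH 8.0, NaCl 300 mM, TCEP 1 mM, BSA, Tween 20); add 5X protein mix (GST-E1A, His-CtBP, 125 nM each); pin 23 nL compound; 2 h at 37 °C, dark; add 5X beads (50 ug/mL); 1 h; read.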
gsp antagonist – antagonists of gsp mutant (McCune-Albright syndrome) | gsp-mutant cells, cAMP HTRF, 30 min; control for the full effect not named in the record | Potency, µM (titrated, usually from 76.9 µM), for inactives: top-dose activity change, negative = inhibition, actives largely listed as inhibitors | AID 624288 | 0.4% of 340,000 active; active = falling curve of any shape with a large fitted effect; inconclusive = falling curve, mostly with a smaller effect; inactive = flat or rising curve; cell line not stated here;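 further: intracellular cAMP measured with PDE inhibitor Ro 20-1724 present during compound exposure; potency means the concentration at half of the fitted maximal effect; on the % scale 0 is the no-effect control and ±100 the full control effect; nearly all actives have a fitted effect of over 65% in size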
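HTRF cAMP measurement after 30 min RT detection following 30 min, 37C compound treatment alongside […] (added as 300 uM solution) in G418-selected cells seeded at 2000/well and grown 16–24 h.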
D2 potentiator – human D2 receptor positive allosteric modulation. P14416. DiscoveRx D2 beta-arrestin cells, luminescence, 90 min; 100% = 57 uM dopamine signal. potentiation, % (test concentration not listed). 0.23% of 360,000 active; active = potentiation of 50% or more; inconclusive = 30% to 50%; inactive = 30% or less;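 further: compound concentration not given in the record; tested on top of an EC20 dose of dopamine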
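PathHunter D2 cells, attached overnight at 37 deg C, received compound in DMSO plus dopamine at EC20 (50 nM final) for 90 min at 37 deg C. Beta-arrestin recruitment was read as luminescence after 1 h with detection reagent at ambient temperature.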
Six1-Eya2 blk – Six1/Eya2 interaction inhibition; AID 651725; 0.56% of 360,000 active; AlphaScreen GST-Six1/His-Eya2 binding, biochemical; active compounds read low; control for the full effect not named in the record; activity change, % (test concentration not listed); Q15475+O00167; in the data active = activity change below about -65%; inconclusive = about -30% to -65%; inactive = above about -30%; further: on the % scale 0 is the no-effect control and ±100 the full control effect
Target sequence (O00167 whole entry, looked up): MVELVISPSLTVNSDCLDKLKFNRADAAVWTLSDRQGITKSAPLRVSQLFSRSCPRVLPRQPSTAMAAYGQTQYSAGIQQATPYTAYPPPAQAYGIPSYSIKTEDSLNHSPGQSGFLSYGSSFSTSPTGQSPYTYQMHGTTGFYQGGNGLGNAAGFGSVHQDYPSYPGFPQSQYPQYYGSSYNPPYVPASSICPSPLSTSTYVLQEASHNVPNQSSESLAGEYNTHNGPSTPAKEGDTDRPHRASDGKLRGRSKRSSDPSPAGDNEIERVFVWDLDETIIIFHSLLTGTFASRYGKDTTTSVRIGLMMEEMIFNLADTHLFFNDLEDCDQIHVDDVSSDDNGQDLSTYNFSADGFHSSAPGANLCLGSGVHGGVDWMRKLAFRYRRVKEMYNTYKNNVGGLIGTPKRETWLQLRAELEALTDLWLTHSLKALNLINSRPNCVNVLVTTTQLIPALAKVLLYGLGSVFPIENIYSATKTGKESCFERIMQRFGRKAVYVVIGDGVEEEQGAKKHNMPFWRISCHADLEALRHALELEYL
Target sequence (Q15475 whole entry, looked up): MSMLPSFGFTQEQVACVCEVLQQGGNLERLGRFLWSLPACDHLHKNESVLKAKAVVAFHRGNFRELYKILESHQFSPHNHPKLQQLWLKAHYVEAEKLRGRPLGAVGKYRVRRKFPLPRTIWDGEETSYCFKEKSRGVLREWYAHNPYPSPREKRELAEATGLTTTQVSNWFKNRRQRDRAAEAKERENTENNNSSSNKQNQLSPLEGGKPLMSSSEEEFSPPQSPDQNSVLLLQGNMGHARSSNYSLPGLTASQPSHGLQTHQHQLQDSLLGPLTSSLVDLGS
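AlphaScreen luminescence read after one hour at 37 °C in darkness. Pin-transferred compounds met GST-Six1 and His-Eya2 protein (5X stock 250 nM/500 nM) plus glutathione donor and Ni-chelate acceptor beads (5X, 50 ug/mL).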
gsp agonist – gsp mutant agonism; 0.13% of 340,000 active; Potency, µM (titrated, usually from 76.9 µM), for inactives: at the highest dose activation (cAMP increase), actives largely listed as activators; gsp mutant cells, cAMP HTRF, 30 min; control for the full effect not named in the record; active = well fitted activation curve with a large enough effect; inconclusive = small, poorly fitted or top-dose-only effect, or another doubt; inactive = no such curve, though single readings can be large or run the other way; cell line not stated here;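 further: phosphodiesterase inhibitor Ro 20-1724 added with compounds to block cAMP breakdown; potency means the concentration at half of the fitted maximal effect; nearly all actives have a fitted effect of over 60% in size; about a fifth of the inactives were tested at one dose only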
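Cells stably selected in G418 were plated at 2000/well, grown 16-24 hr, then given compounds in DMSO with the PDE inhibitor […] (300 uM solution added) for 30 min at 37C; cAMP was read by HTRF.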
* hit, by the source's call; ? = inconclusive; . = not tested or not shown; [ ] = another dose, or the depositor's remark. Not a hit list, and some 1.4% of all compounds hit somewhere here.

1. COc1ccc(-c2nc(CS(=O)CC(=O)NC3CCCCC3C)c(C)o2)cc1 (stereo not given)
2. Cc1ccc(C(=O)C(C)N2C(=O)NC(C)(c3ccccc3)C2=O)cc1 (stereo not given)
3. COc1cc(NC(=O)CCc2nnc3ccc(N4CCN(C)CC4)nn23)cc(OC)c1
4. CC(C)CCNC(=O)C(=O)NC1CCCC1
5. CCCCN(C(=O)CSCC(=O)Nc1ccc(OC)cc1)c1c(N)n(Cc2ccccc2)c(=O)[nH]c1=O
6. N#C/C(=C\c1cccs1)C(=O)NCc1cccnc1
7. CCCCC12CN3CCN(CC(C3)/C1=N\NC(=O)c1ccccc1N)C2
8. CCn1c(=S)sc2c(=O)[nH]c(C)nc21
9. Cc1ncsc1CCOC(=O)c1ccc([N+](=O)[O-])cc1
10. CCNC(=O)CSc1nc2cc(S(=O)(=O)Nc3ccc(OC)cc3)ccc2o1

Screen / compound no.	1	2	3	4	5	6	7	8	9	10
D2 ag	-0.2	-1.3	-2.8	-2.7	-1.9	0.2	-2.6	1.1	1.0	-3.2
CtBP-E1A blk	3.8	-2.8	0.4	0.3	-3.5	-1.1	0.0	-1.6	-6.0	-6.3
gsp antagonist	8.4%	2.4%	10.1%	12.6%	7.1%	6.5%	11.2%	-8.2%	3.1%	-11.7%
D2 potentiator	-3.8	-1.8	-12.3	-0.5	7.0	-5.8	2.2	20.5	20.2	-10.7
Six1-Eya2 blk	-1.2	-19.8	9.1	4.3	1.1	3.6	-1.2	-1.2	-7.3	0.1
gsp agonist	?	20.3%[15.4 µM]	-9.4%	-8.8%	-6.4%	-88.7%[inhibitor]	8.7%[15.4 µM]	-35.0%[inhibitor]	0.9%	3.1%

11. CCOC(=O)c1cnc2ccc(OC)cc2c1NCCN1CCOCC1
12. Cc1nc2ccc3nc(NC(=O)c4ccc(S(=O)(=O)N5CCOCC5)cc4)sc3c2s1
13. C=CCOc1ccccc1CNCCc1ccc(S(N)(=O)=O)cc1
14. CCC(=O)Oc1c(S(=O)(=O)c2ccc(C)cc2)c(C)nn1C(C)(C)C
15. Cc1ccc(OCC(=O)Nc2sc3c(c2C#N)CCC3)cc1
16. CNC(=O)C1Cc2c(-c3ccccc3Oc3ccccc3)ccnc2O1 (stereo not given)
17. O=C(Nc1ccccc1N1CCOCC1)c1cccc(S(=O)(=O)N2CCOCC2)c1
18. CCOC(=O)N1CCN(C(=O)c2ccccc2CCc2ccccc2)CC1
19. COC(=O)c1nc2ccccn2c1F
20. Cc1ccc(Cn2c(C3CCCN3c3nc(-c4cc(Cl)c(N)c(Cl)c4)cs3)nc3cc(Cl)c(Cl)cc32)cc1 (stereo not given)

Screen / compound no.	11	12	13	14	15	16	17	18	19	20
D2 ag	3.0	1.4	-3.7	-3.2	-1.1	-4.3	8.7	-0.1	0.9	-1.6
CtBP-E1A blk	.	-0.5	-1.2	9.3	2.0	-3.3	1.6	1.8	9.1	-0.8
gsp antagonist	-10.4%	-0.9%	10.3%	4.4%	-1.0%	.	13.6%	1.7%	6.2%	-0.4%
D2 potentiator	-0.6	-2.1	-9.8	-6.0	-1.4	-2.1	1.0	-17.5	-2.1	-5.9
Six1-Eya2 blk	-2.2	2.1	2.6	5.5	3.8	14.3	1.7	-1.7	4.0	-9.2
gsp agonist	-17.1%	-24.0%	1.3%	?	-65.0%[inhibitor]	.	6.9%	-2.7%	21.9%	-1.7%

21. O=S(=O)(NC1CCCCC1)c1ccc(Br)cc1
22. O=C(Nc1ccccc1)c1nc[nH]c1C(=O)N1CCc2ccccc2C1
23. Cc1ccc(C(=O)COC(=O)c2ccncc2)cc1[N+](=O)[O-]
24. CCOC(=O)N1CCN(Cc2cc(Cl)c3cccnc3c2O)CC1
25. COc1ccc(-c2ccc(=O)n(CC(=O)Nc3ccc(C(=O)NC4CC4)cc3)n2)cc1OC
26. CCOc1ccccc1NC(=O)c1ccc(S(=O)(=O)N2CCOCC2)cc1
27. CCNC(=O)C1(C)CCCN(Cc2ccccc2-c2ccccc2)C1 (stereo not given)
28. CCN(CC)S(=O)(=O)c1nnc(NC(=O)c2ccco2)s1
29. Cc1ccc(OCCCCN2CCc3ccccc3C2)c(C)c1
30. O=C(C1=C(O)C(=O)N(c2ncccn2)C1c1ccc(Cl)cc1)c1ccco1 (stereo not given)

Screen / compound no.	21	22	23	24	25	26	27	28	29	30
D2 ag	0.4	2.0	-11.4	-5.6	0.2	2.0	-2.2	-2.0	-0.4	-4.4
CtBP-E1A blk	4.8	0.7	2.4	-90.9*	-1.7	4.2	2.2	-0.9	-5.8	16.0
gsp antagonist	4.3%	-2.0%	6.8%	2.8%	-12.5%	-9.6%	.	-2.6%	12.3%	10.1%
D2 potentiator	-4.3	-18.3	-45.3	-29.0	-12.6	-4.1	-5.5	-2.9	-8.0	-3.2
Six1-Eya2 blk	5.3	0.8	1.7	-77.6*	2.3	-2.8	-3.0	-12.0	8.8	-4.0
gsp agonist	-19.5%	1.6%	-4.2%	3.3%	1.6%	-1.7%	.	?	-47.3%[inhibitor]	?

31. O=C(CNS(=O)(=O)c1ccc(Cl)c(C(F)(F)F)c1)NC1CCCCCC1
32. O=C(Nc1cccc(-c2nc3ncccc3o2)c1)c1sc2cc(Cl)ccc2c1Cl
33. CCN1CCN(C(C(=O)NC2CCCCC2)c2ccnc3ccccc23)CC1 (stereo not given)
34. COc1ccc(-n2c(C)cc(/C=C/c3nc(O)c([N+](=O)[O-])c(=O)[nH]3)c2C)cc1
35. C=CCc1cccc2cc(C(=O)N(C)C)c(=O)oc12
36. COc1ccc(N2CCN(c3nc(Cl)nc(Nc4ccc(F)cc4)n3)CC2)cc1
37. Oc1ccccc1N1CCN(c2nc(-c3cccs3)nc3ccccc23)CC1
38. Cc1c(NCc2ccncc2)cccc1C(=O)O
39. COc1ccc(OCC(O)CNC2CCCC2)cc1 (stereo not given)
40. CC(C)N(C)c1ncnc2c1ncn2[C@H]1CN(Cc2ccco2)C[C@@H](CO)O1

Screen / compound no.	31	32	33	34	35	36	37	38	39	40
D2 ag	-3.5	2.1	2.1	5.0	-0.2	0.4	1.4	-2.9	-0.1	-9.7
CtBP-E1A blk	10.8	2.2	5.7	.	5.0	?	-5.7	5.4	-14.4	8.0
gsp antagonist	-4.2%	9.9%	.	0.8%	-9.7%	-13.0%	-19.8%	-4.2%	11.3%	.
D2 potentiator	-21.4	-8.9	-1.8	-3.8	2.5	-0.6	-7.8	-7.5	-6.5	-2.4
Six1-Eya2 blk	-0.4	2.0	0.7	-7.5	0.6	-28.9	-16.4	4.5	-16.1	0.7
gsp agonist	-8.0%	14.4%	.	-0.3%[15.4 µM]	2.7%	1.8%	18.9%	-4.7%[15.4 µM]	-1.2%	.

Molecules shown so far containing a nitro group on carbon, in the order listed:
9. Cc1ncsc1CCOC(=O)c1ccc([N+](=O)[O-])cc1
23. Cc1ccc(C(=O)COC(=O)c2ccncc2)cc1[N+](=O)[O-]
34. COc1ccc(-n2c(C)cc(/C=C/c3nc(O)c([N+](=O)[O-])c(=O)[nH]3)c2C)cc1

Screen / compound no.	9	23	34
D2 ag	1.0	-11.4	5.0
CtBP-E1A blk	-6.0	2.4	.
gsp antagonist	3.1%	6.8%	0.8%
D2 potentiator	20.2	-45.3	-3.8
Six1-Eya2 blk	-7.3	1.7	-7.5
gsp agonist	0.9%	-4.2%	-0.3%[15.4 µM]

(more compounds)
41. COC(=O)c1sc2nc(SCc3ccccc3C#N)n(N)c(=O)c2c1C
42. CC(C)(C)C(=O)COC(=O)c1cc(-c2ccncc2)nc2ccccc12
43. COc1ccc(NC(=O)COC(=O)C23CC4CC(CC(Cl)(C4)C2)C3)c(OC)c1
44. CCCN(CCC)S(=O)(=O)c1cccc(C(=O)Nc2ccc3c(c2)OCO3)c1
45. COc1ccc(NC(=O)CN(C)CC(=O)NC2CCCCC2C)cc1 (stereo not given)
46. COc1ccc(NCc2nnc(SCC(=O)c3ccc(OC)cc3)n2C)cc1
47. CCOc1ccc(C(C)=O)cc1CN1C(=O)c2ccccc2S1(=O)=O
48. Cc1ccc(NS(=O)(=O)c2ccc(NC(=O)c3ccc(-c4ccccc4)cc3)cc2)c(C)c1
49. COc1cc(C(C)=O)ccc1Oc1ncnc2c1cnn2-c1ccc(C)c(C)c1
50. O=S1(=O)C=C(Oc2ccc(F)cc2)c2ccccc21

Screen / compound no.	41	42	43	44	45	46	47	48	49	50
D2 ag	-3.9	-1.6	-1.3	-1.1	-0.3	-0.8	-2.1	-1.3	0.1	-3.0
CtBP-E1A blk	10.9	-16.3	-6.0	?	0.1	-11.0	0.0	1.6	0.8	4.9
gsp antagonist	-19.2%	-14.2%	-5.0%	15.2%	-13.7%	-11.6%	-24.6%	0.4%	-14.5%	0.0%
D2 potentiator	19.4	6.5	-12.1	-1.7	-1.0	2.7	-2.2	-2.7	-4.5	-5.9
Six1-Eya2 blk	7.2	0.0	2.9	?	-10.9	-11.3	-10.1	0.1	-1.2	-0.6
gsp agonist	-16.2%	-6.9%[15.4 µM]	-39.6%[inhibitor]	-1.2%	1.9%	-2.9%	-1.2%[15.4 µM]	-3.9%	-31.7%	?

51. Cc1ccc(S(=O)(=O)N2[C@@H](c3cccc(Cl)c3)C(C(=O)O)=CC[C@H]2c2cccc(Cl)c2)cc1
52. COc1ccc(-c2nn(-c3ccccc3)cc2CNC[C@H]2O[C@@H](n3cnc(C(N)=O)n3)[C@H](O)[C@@H]2O)cc1
53. Cc1ccc2nc(SCc3ccccc3)c(C=O)c(=O)n2c1
54. O=C(c1ccc(Br)o1)N(c1ccccn1)C1CCCCC1
55. CNc1cc([N+](=O)[O-])ccc1N/C=C/C(=O)c1cccs1
56. COc1ccc(S(=O)(=O)N2CCCCC2c2cc(C(=O)NCc3cccnc3)no2)cc1 (stereo not given)
57. O=C(COC(=O)c1ccccc1Br)NCc1cccs1

Screen / compound no.	51	52	53	54	55	56	57
D2 ag	-2.5	0.2	-8.9	3.2	-9.3	-1.9	1.6
CtBP-E1A blk	-6.9	-9.5	-0.9	15.2	-12.0	2.7	1.9
gsp antagonist	5.5%	4.4%	0.9%	-6.0%	-13.7%	.	6.6%
D2 potentiator	-36.6	.	5.7	-17.1	-13.2	1.3	-8.5
Six1-Eya2 blk	2.4	3.6	6.0	1.4	-27.7	0.1	-0.4
gsp agonist	.	.	-39.9%[inhibitor]	19.3%[15.4 µM]	23.8%	.	-33.3%[inhibitor]
